StopGo RLuc: lowers the Renilla signal of an FMDV 2A StopGo reporter; AID 1745857; Potency, µM (series often up to 57.5 µM), for the others: at the highest dose signal change, negative = less light; HEK cells with a luciferase reporter of 2A StopGo recoding; 0.32% of 120,000 active; active means well fitted falling curve with a large enough effect; inconclusive means small, poorly fitted or top-dose-only effect; inactive means no such curve, though single readings can be large or run the other way; further: nearly all actives have a fitted effect of over 55% in size; overnight with compound
2A firefly: lowers the firefly signal of an FMDV 2A StopGo reporter. 0.23% of 120,000 active. AID 1745856. Potency, µM (doses to about 57.5 µM), without a hit: top-dose signal change, negative = less light. HEK cells with a luciferase reporter of 2A StopGo recoding; active = well fitted falling curve with a large enough effect; inconclusive = small, poorly fitted or top-dose-only effect; inactive = no such curve, though single readings can be large or run the other way; further: nearly all actives have a fitted effect of over 60% in size; overnight with compound
* hit, by the source's call; ? = inconclusive; & = joins results of further samples; [ ] = dose if it differs, or a comment. On the % scale 0 is the no-effect control and ±100 the full control effect; potency means the concentration at half of the fitted maximal effect.

SMILES	StopGo RLuc	2A firefly
O=C(CSc1nnc(-c2ccccc2)c(-c2ccccc2)n1)Nc1ccccc1Cl	20%	-14%
C=CCNC(=O)N1CCN(C(c2ccc(F)cc2)c2ccc(F)cc2)CC1	8%	29%
COC(=O)[C@H](C)NC(=O)Nc1ccc2oc(-c3cccnc3)nc2c1	6%	31%[activator]
CCOc1ccc(CNC(=O)CCCn2nc(C)c3sc4ccccc4c3c2=O)cc1	-9%	-21%
COc1cccc(OCC(C)CN2CCC(C(O)(c3ccccc3)c3ccccc3)CC2)c1 (centres undefined)	-6%	-12%
Cc1ccc(S(=O)(=O)N2CCNC(=O)C2)c2cccnc12	5%	2%
Cc1ccc(Cc2nc3ccccc3nc2SCC(=O)Nc2ccc3c(c2)OCO3)cc1	-2%	-1%
O=C(CCCn1c(=O)c2sccc2n(Cc2ccc(F)cc2Cl)c1=O)NCc1ccc2c(c1)OCO2	-5%	18%
Cc1ccc2nc(NC(=O)c3cc(=O)c4cc(Cl)ccc4o3)sc2c1	-8%	-11%
COc1ccc(OC)c(NC(=O)CSc2nc3nc(C)c(Cc4ccccc4)c(C)n3n2)c1	26%	14%

Next structures follow:
SMILES	StopGo RLuc	2A firefly
COc1ccc(-c2nnc(SCC(=O)c3ccc([N+](=O)[O-])cc3)o2)cc1OC	-7%	-1%
CC(NC(=O)CSc1n[nH]c(-c2ccccc2)n1)c1nc2ccccc2n1C (centres undefined)	7%	-29%
Cc1ccc2c(CC(=O)N3CCN(c4cccc(Cl)c4)CC3)coc2c1	-7%	-11%
Cc1ccc(N2CCN(C(=O)c3cnn(-c4ccc(F)cc4F)c3C3CCN(C(=O)OC(C)(C)C)CC3)CC2)c(C)c1	-15%	-15%
CCOc1ccc(C(=O)CCC(=O)NCC(=O)NC2CC2)cc1	-12%	-6%
CSC(C)C(=O)NC(C)Cc1ccc(Br)cc1 (centres undefined)	2%	-8%
CC(C)Cc1ccc(C(C)NC(=O)C2CC2C)cc1 (centres undefined)	?	?
O=C(O)C1=CC(/C=C/c2ccccc2)n2ncc(C(=O)Nc3ccc(F)cc3)c2N1 (centres undefined)	2%	18%
COC(=O)c1cc(C)sc1NC(=O)CC1Sc2ccc(C(F)(F)F)cc2NC1=O (centres undefined)	-1%	3%
Cc1oc2cc(OCC(=O)Nc3nccs3)ccc2c(=O)c1-c1ccccc1	-11%	14%

At a glance, part of the list above:
SMILES	StopGo RLuc	2A firefly
CSC(C)C(=O)NC(C)Cc1ccc(Br)cc1 (centres undefined)	2%	-8%
CC(C)Cc1ccc(C(C)NC(=O)C2CC2C)cc1 (centres undefined)	?	?
O=C(O)C1=CC(/C=C/c2ccccc2)n2ncc(C(=O)Nc3ccc(F)cc3)c2N1 (centres undefined)	2%	18%
COC(=O)c1cc(C)sc1NC(=O)CC1Sc2ccc(C(F)(F)F)cc2NC1=O (centres undefined)	-1%	3%
Cc1oc2cc(OCC(=O)Nc3nccs3)ccc2c(=O)c1-c1ccccc1	-11%	14%

More compounds follow.
SMILES	StopGo RLuc	2A firefly
CCN(CC)c1ccc(NC(=O)C2CCN(c3nnc(-n4cccc4)s3)CC2)c(C)c1	-10%	-12%
CCc1ccc(C2CC(=O)Nc3c2c(C)nn3-c2nc(C)cc(C)n2)cc1 (centres undefined)	-6%	-4%
Cc1ccc(CCNC(=O)c2cc3sccc3n2Cc2ccc(Cl)cc2)cc1	-16%	?
Cc1c(C(=O)N(C)C)sc2c1c(=O)n(-c1ccc(F)cc1)c(=O)n2Cc1cc(=O)n2ccccc2n1	-2%	-13%
COc1cccc(C(=O)Nc2cccc(OCc3cc(=O)n4cc(C)ccc4n3)c2)c1	16%	-24%
COc1ccccc1CNc1cc(C)nc2nc(-c3ccc(C)cc3)nn12	16%	126%[activator]
CC(C)(C)c1ccc(C(=O)Nc2cccc3ncccc23)cc1	?	-11%
COc1ccc(NS(=O)(=O)c2cc(-c3n[nH]c(=O)c4ccccc34)ccc2C)cc1	8%	?
CCc1cc(C(=O)N2CCN(c3ccccc3)CC2)no1	-2%	33%[activator]
Cc1c(Cl)c(C(F)(F)F)nn1CC(=O)Nc1ccc(Cl)cc1	?	?

(more compounds)
SMILES	StopGo RLuc	2A firefly
CC/C(=N\O)c1ccc(O)c(OC)c1	1%	30%[activator]
CCCOc1ccc(Oc2nc(NCC(C)C)nc(N(C)C)n2)nn1	11%	18%
Cc1ccc(Cc2cn3cc(-c4ccccc4)nc3s2)cc1	25%	380%[activator]
COC(=O)c1ccc(Cn2c(=O)cc(C(F)(F)F)c3c(C)nn(C)c32)cc1	-16%	-12%
Cc1ccc(CC(=O)N(Cc2nc(-c3ccccc3)no2)C2CCCCC2)cc1	44%[activator]	43%[activator]
CCc1ccc(C(C)NC(=O)CN(C)Cc2ccc(C)o2)cc1 (centres undefined)	-8%	-10%
O=C(NCc1cccnc1)c1ccccc1NS(=O)(=O)c1ccc2[nH]c(=O)[nH]c2c1	-9%	3%
Cc1[nH]c2ccccc2c1C(=O)N1CCN(S(=O)(=O)c2ccccc2F)CC1	7%	?
COc1ccc(CCN2C(=O)N(c3ccc(C)cc3)C(=O)C2CC(=O)Nc2ccc(F)cc2)cc1 (centres undefined)	120%[activator]	43%[activator]
COC(=O)c1c(SCC(=O)Nc2cc(C)cc(C)c2)[nH]c2ccccc2c1=O	-13%	-5%

In another format: results already given
CC/C(=N\O)c1ccc(O)c(OC)c1
  StopGo RLuc: 1%; 2A firefly: 30%[activator]
O=C(NCc1cccnc1)c1ccccc1NS(=O)(=O)c1ccc2[nH]c(=O)[nH]c2c1
  StopGo RLuc: -9%; 2A firefly: 3%

Next section
SMILES	StopGo RLuc	2A firefly
COCCn1c(C)c(C)c(S(=O)(=O)c2ccc(C)cc2)c1NC(=O)c1ccco1	40%[activator]	0%
CCCCOC(=O)c1ccc(NC(=O)c2cc3c(=O)n4cccc(C)c4nc3s2)cc1	-2%	-12%
COc1ccc2sc(N(Cc3cccnc3)C(=O)c3cccs3)nc2c1	3.2µM*	?
Cc1ccc(C23CC4CC(C2)CC(c2csc(NC(=O)c5ccccc5)n2)(C4)C3)cc1	3%	0%
COc1ccccc1C1CC(c2ccccc2NS(C)(=O)=O)=NN1C(=O)c1ccco1 (centres undefined)	11%	4%
CC1CC(NC(=O)C2CC=CCC2C(=O)O)CC(C)(C)C1 (centres undefined)	9%	3%
CCCCc1nn2c(=O)cc(COC(=O)C3CCCCC3)nc2s1	-4%	-15%
COc1ccc(CCNC(=O)CS(=O)(=O)Cc2nc(-c3ccccc3Cl)oc2C)cc1OC	-2%	-9%
Cc1ccc(C(=O)CC(=O)c2ccc(C)c(C)c2)cc1C	-5%	24%
Nc1nc(CN2CCN(C(=O)c3ccc(OC(F)F)cc3)CC2)nc2ccccc12	-9%	-6%

More results follow.
SMILES	StopGo RLuc	2A firefly
CCOc1cccc(CNC2CCCCC2)c1	10%	11%
COc1cccc(C(=O)Nc2sc3c(c2C(N)=O)CCCC3)c1OC(F)F	59%[activator]	86%[activator]
O=C(CSc1nc(=O)n(Cc2cccnc2)c2c1CCC2)Nc1cccc(Cl)c1	19%	-3%
Cc1ccc(C(=O)Nc2nnc(SCc3cc(=O)c4c(C)ccc(C)c4[nH]3)s2)cc1	16%	208%[activator]
Cc1cc(C)cc(OCC(=O)Nc2c(C)ccc3nsnc23)c1	27%	11%
COc1ccc(S(=O)(=O)Nc2cc(OC(F)F)c(OC)cc2C(=O)O)cc1Br	2%	1%
COc1ccc(C(NC(=O)COc2ccc(-c3ccccc3)cc2Cl)c2nccn2C)cc1 (centres undefined)	?	?
CCCOC(=O)COc1ccc2c(=O)c(Oc3ccccc3Br)coc2c1	-11%	-15%
O=C(CN1CCN(C(=O)CCc2ncc(-c3ccccc3F)o2)CC1)Nc1ccccc1Cl	-19%	-16%
Cc1ccc(-c2nonc2NC(=O)c2ccccc2)cc1	160%[activator]	23%

Grouped by structure: the entries above with a furan ring, fused or not
SMILES	StopGo RLuc	2A firefly
Cc1ccc2c(CC(=O)N3CCN(c4cccc(Cl)c4)CC3)coc2c1	-7%	-11%
CCc1ccc(C(C)NC(=O)CN(C)Cc2ccc(C)o2)cc1 (centres undefined)	-8%	-10%
COCCn1c(C)c(C)c(S(=O)(=O)c2ccc(C)cc2)c1NC(=O)c1ccco1	40%[activator]	0%
COc1ccccc1C1CC(c2ccccc2NS(C)(=O)=O)=NN1C(=O)c1ccco1 (centres undefined)	11%	4%

The results go on.
SMILES	StopGo RLuc	2A firefly
CCOC(=O)NC(C(=O)NCc1ccc(OC)cc1)C(C)C (centres undefined)	-5%	-6%
Cc1ccccc1-c1noc(-c2nnn(-c3ccc(F)cc3)c2C)n1	8%	186%[activator]
CN(C)c1ccccc1NC(=O)c1cncc(Br)c1	-6%	8%
Cc1ccccc1-c1cc(C(=O)NCCC(c2ccccc2)c2ccccc2)c2ccccc2n1	8%	22%
CCc1cccc(Nc2nc(CSc3ccc(Cl)cc3)nc3sc4c(c23)CCC4)c1	-8%[1.06 µM]	18%
CCCC1N=C2c3ccccc3N=C(SCC(=O)NCCc3ccc(Cl)cc3)N2C1=O (centres undefined)	126%[activator]	-9%
CCNC(=O)NC(=O)C(C)N(C)CCCCc1ccccc1 (centres undefined)	3%	6%
CC(C)c1nnc2ccc(N3CCCC(C(=O)O)C3)nn12 (centres undefined)	-13%	-3%
O=C(NCCCc1nc2ccccc2n1Cc1ccccc1Cl)c1ccco1	-3%	?
O=S(=O)(NCCc1cccc2cccnc12)c1ccccc1	115%[activator]	23%

Other structures.
SMILES	StopGo RLuc	2A firefly
C#CCOc1ccc2ccccc2c1C=O	8%	33%[activator]
C=C(C)CC1NC2CC(C)(C)C1c1c(Br)ccc(Br)c12 (centres undefined)	18%	2%
Cn1c(NCc2ccccc2F)nc2ccccc21	-6%	175%[activator]
CCNC(=O)/C=C/c1ccc(C(=O)OC)cc1	-4%	41%[activator]
O=C(COCc1cc(-c2ccc3c(c2)OCO3)on1)Nc1cc(Cl)ccc1O	9%	-13%
Cc1noc(-c2ccc(NCc3ccccc3)c([N+](=O)[O-])c2)n1	-12%	51%[activator]
CCC(CC)c1nnc(NC(=O)c2cccc(S(=O)(=O)N(C)c3cccc(Cl)c3)c2)s1	29%	-23%
CC(OC(=O)/C=C/c1cccc2cccnc12)C(=O)NC1(C#N)CCCCC1 (centres undefined)	1%	16%
Cc1ccccc1Cn1cnc2nc3c(cc2c1=O)CC(C)CC3 (centres undefined)	-40%	12%
CCOc1ccccc1NC(=O)C1=C(C)Nc2ncnn2C1c1cccs1 (centres undefined)	-12%	-6%

Further entries follow:
SMILES	StopGo RLuc	2A firefly
Cc1ccc(CN(C(=O)COc2c(C)cccc2C)C2CCS(=O)(=O)C2)o1 (centres undefined)	15%	0%
CC(C)c1ccc(C(=O)O)s1	-4%[1.06 µM]	30%[activator]
CC(C)C(=O)Nc1ccc2c(C(C(=O)O)N3CCN(Cc4ccccc4)CC3)c[nH]c2c1 (centres undefined)	-14%	0%
C=C(C)CNC(=S)N/N=C(/C)c1ccc(C)o1	34%[activator]	10%
Cc1cccc(C)c1NC(=O)CCC(=O)N1Cc2ccccc2Oc2ncccc21	2%	-2%
Cc1ncc(-c2ccc(C)c(S(=O)(=O)Nc3ccc(OC(F)(F)F)cc3)c2)o1	90%[activator]	-8%
Cc1ccc2c(C(=O)O)cc(-c3ccccn3)nc2c1C	-3%&-7%	-1%&-2%
Cc1ccc(NC(=O)NCc2c(C)nn(C)c2C)cc1C	10%	149%[activator]
O=C(O)C(=O)/C(=C/c1cccs1)c1ccc2ccccc2n1	-10%	107%[activator]
CCCCn1c(NCc2c[nH]c3ccccc23)nc2ccccc21	-7%	17%

(listing goes on)
SMILES	StopGo RLuc	2A firefly
COc1cc(NC(=O)Nc2cc(-c3nc4cc(C)ccc4o3)ccc2OC)cc(OC)c1	5%	181%[activator]
c1ccc(N2CCN(c3ncnc4[nH]ncc34)CC2)cc1	4%	-27%
COc1ccc(/C=C/c2nc(C#N)c(NCCCN(C)C)o2)cc1OC	-7%	-4%
O=C(Nc1ccc(CC(=O)N2CCOCC2)cc1)c1cc(Cl)ccc1Cl	2%	-8%
O=C(CCc1ncc(-c2ccccc2Cl)o1)Nc1ccc(F)cc1	1%	7%
Cc1noc(C)c1S(=O)(=O)N1CCCC(C(=O)Nc2ccc(C(C)C)cc2)C1 (centres undefined)	-12%	-20%
Cc1ccc(C)c(-c2nn(CC(=O)NCC(F)(F)F)c(=O)c3ccccc23)c1	-3%	2%
Cn1c(=O)c2c(nc(N3CCCCCC3)n2CCCc2ccccc2)n(C)c1=O	1%	-2%
CCCCCCC[N+](CC)(CC)CCCCc1ccc(Cl)cc1	7.9µM*	?
CCOc1ccc(N2C(=O)c3[nH]nc(-c4ccccc4)c3C2c2ccc(O)c(OC)c2)cc1 (centres undefined)	17%	-31%

Remaining list, next part
SMILES	StopGo RLuc	2A firefly
CC(C)C(=O)N1c2nc(-c3ccco3)nn2C2(CCCCC2)[C@@H]2CCCC[C@@H]21	-22%	-17%
Cc1sc(/N=C/c2cccc3ccccc23)c(C#N)c1C	11%	0%
COC[C@@H](c1ccc(C(F)(F)F)cc1)N1CCN(C2(C)CCN(C(=O)c3c(C)ncnc3C)CC2)C[C@H]1C	-14%	-22%
CC(C)NC(=O)C(=O)N1CCN(c2nc(-c3ccco3)c3c(c2C#N)CCCC3)CC1	2%	-8%
Cc1nc2nc(SCC(=O)NC3CCCC3)nn2c(C)c1Cc1cccc(Cl)c1	-1%	-6%
O=C(CSc1nnc2ccccn12)N1CCN(Cc2cccc(Cl)c2)CC1	-17%	8%

Source: PubChem BioAssay

Not all compounds are listed; rates above refer to the full screens.
